# Bioassay records (PubChem)
# VACV mCherry inh = inhibitors of vaccinia virus infection (mCherry reporter signal); Vaccinia virus mCherry reporter infection, fluorescence; about a quarter of the inactives have no number; Potency, µM (doses to about 36.5 µM), without a hit: at the top dose activity change, negative = inhibition, actives largely listed as inhibitors; 310,000 tested, 0.63% active; active = well fitted inhibition curve with a large enough effect; inconclusive = small, poorly fitted or top-dose-only effect; inactive = no such curve, though single readings can be large or run the other way; tested in A549 cells; also: nearly all actives have a fitted effect of over 35% in size; inactives centre near -10
# VACV Venus inh = vaccinia inhibition (Venus reporter). Vaccinia virus Venus reporter expression, fluorescence. Potency, µM (series often up to 36.5 µM), for the others: top-dose activity change, negative = inhibition, most hits filed as inhibitors. 330,000 tested, 0.46% active. AID 720580; active means well fitted inhibition curve with a large enough effect; inconclusive means small, poorly fitted or top-dose-only effect; inactive means no such curve, though single readings can be large or run the other way; tested in A549 cells; also: nearly all actives have a fitted effect of over 30% in size; inactives centre near -10
# Numbers without * were called inactive; i = inactive; ? = inconclusive; . = not tested or not shown; & = joins results of further samples; [ ] = another dose, or the depositor's remark. % is scaled to controls: 0 for no effect and ±100 for the full control effect; potency is read from the fitted curve at half-maximal effect.
canonical_smiles	VACV mCherry inh	VACV Venus inh
CC(CNC(=O)c1csc2c1CCCCC2)c1ccccc1 (centres undefined)	-8.6%	-8.3%
Nc1c(Cl)cc(-c2[nH]c3cc(C(=O)NCCO)ccc3c(=O)c2O)cc1Cl	-2.0%	5.6%
COc1ccc(/C(N)=N/OC(=O)CC2CCCCC2)cc1	-19.6%	1.4%
CCn1nc(NS(=O)(=O)c2ccc(NC(C)=O)cc2)c2cc3cc(C)ccc3nc21	0.7%	-4.5%
Cc1cccc(NC(=O)C2NC(=O)CC2c2ccccc2)c1C (centres undefined)	-10.1%	-0.2%
COc1cc(NC(=O)c2ccc3c(c2)OCCO3)ccc1NC(=O)c1ccco1	i	-9.6%
CCc1ccc(C2=NN(CCC(=O)NCCc3ccc(Cl)cc3)C(=O)CC2)cc1	-9.6%	-8.8%
O=C(Nc1cccnc1Cl)c1ccc(=O)oc1	i	6.4%
COCCN1CCN(C(=O)c2cc(COc3ccc(F)cc3F)on2)CC1	-10.9%	-12.4%
Cc1c(C(=O)NCc2ccoc2)oc2ccc3c(c12)C(=O)CC(C)(C)O3	-20.9%	-17.7%
COc1ccccc1C(=O)N1CCN(Cc2ccc3c(c2)OCO3)CC1	-16.8%	-12.0%
CC(=O)Nc1ccc(S(=O)(=O)NCC(=O)OCC(=O)N2CCc3ccccc32)cc1	-2.3%	-10.4%

# Brought forward from above: 6 compounds, followed by the next part.
canonical_smiles	VACV mCherry inh	VACV Venus inh
CCc1ccc(C2=NN(CCC(=O)NCCc3ccc(Cl)cc3)C(=O)CC2)cc1	-9.6%	-8.8%
O=C(Nc1cccnc1Cl)c1ccc(=O)oc1	i	6.4%
COCCN1CCN(C(=O)c2cc(COc3ccc(F)cc3F)on2)CC1	-10.9%	-12.4%
Cc1c(C(=O)NCc2ccoc2)oc2ccc3c(c12)C(=O)CC(C)(C)O3	-20.9%	-17.7%
COc1ccccc1C(=O)N1CCN(Cc2ccc3c(c2)OCO3)CC1	-16.8%	-12.0%
CC(=O)Nc1ccc(S(=O)(=O)NCC(=O)OCC(=O)N2CCc3ccccc32)cc1	-2.3%	-10.4%
CCOC(=O)Cn1nc(C)c(NC(=O)COc2ccc(OC)cc2)c1C	-9.2%&-8.7%	-11.0%&-3.9%
CCC1(c2ccccc2)NC(=O)N(CC(=O)NCc2ccc(F)cc2)C1=O (centres undefined)	-8.9%	-0.8%
CC(C)NC(=O)Nc1cccs1	-6.2%	3.7%
Cc1ccc(CNC(=O)Cn2c(=O)n(Cc3ccc(F)cc3)c(=O)c3sc4ccccc4c32)cc1	-14.2%	-12.3%
O=C(COc1ccc(S(=O)(=O)N2CCCC2)cc1Cl)NCc1ccc2c(c1)OCO2	?	-8.5%
O=C(N/N=C/c1c[nH]c2ccccc12)c1cccc([N+](=O)[O-])c1	-13.9%	-1.8%
O=C(NCC(c1ccco1)S(=O)(=O)c1cccs1)c1ccccc1F (centres undefined)	-11.8%	-10.5%
CC(C=Cc1ccccc1)=NNS(=O)(=O)c1ccc([N+](=O)[O-])cc1	-1.9%	-7.6%
C=C1C(=O)O[C@H]2[C@H]1[C@@H](O)CC(=C)[C@@H]1CC(=O)[C@@H](C)[C@H]21	?	-20.2%
O=C(Nc1cccs1)Nc1ccc(F)cc1F	-15.4%&-23.4%	-16.8%&-8.9%
O=C(COC(=O)c1ncc(Cl)c(Cl)c1Cl)NCc1cccs1	-29.5%	-16.5%
O=S(=O)(c1ccc(F)cc1)N1CCc2ccccc2C1	-12.8%	-2.9%
CCn1nnnc1SCC(=O)Nc1nc2ccc(OC)cc2s1	-13.8%	-18.4%
Nc1ccc2c(c1)C(=O)c1ccc(Cl)cc1-2	?	-9.7%
Cc1c(O)ccc2c3c(c(=O)oc12)CCCC3	?	-23.4%
CC(C)c1ccc(CC(=O)N2CCC2(C)C(=O)NS(=O)(=O)c2ccc(F)cc2F)cc1 (centres undefined)	-20.4%	-9.7%
COC(C[C@H](O)[C@H](C)[C@H](O)COCc1ccccc1)OC	i	-10.2%
COc1ccccc1CNC(=O)c1cnc2sc(N3CCOCC3)nn2c1=O	-5.3%	-15.4%
COc1ccc(CN2C(=O)NC3(CCCc4ccccc43)C2=O)cc1F (centres undefined)	-20.8%	-9.6%
CCn1cc(Br)c(C(=O)NC(C)c2ccccc2)n1 (centres undefined)	-11.6%	-4.3%
COc1cc(/C=N/NC(=O)CN(CCc2ccccc2)S(=O)(=O)c2ccc(NC(C)=O)cc2)cc(OC)c1OC	i	-16.2%
CC(=O)c1cccc(-c2ccc3c(=O)[nH]c(Nc4ccccc4)cc3c2)c1	-21.3%	?
Cc1ccccc1Cn1c(=O)n(CCCCC(=O)NCCc2ccccc2)c(=O)c2ccccc21	-18.3%	-10.7%
CCOC(=O)NC(NS(=O)(=O)c1ccccc1)(C(=O)OCC)C(F)(F)F (centres undefined)	i	-2.0%
O=C(NC1CCCCCC1)C1c2ccccc2C(=O)N1Cc1cccs1 (centres undefined)	-12.8%	-8.9%
Cc1nn(CCS(=O)(=O)c2ccc(Cl)cc2)c(C)c1Br	i	-18.2%
O=[N+]([O-])c1ccc(-c2nc(C(Cl)Cl)c3ccccc3n2)cc1	-17.1%	-15.2%
CC(C(=O)Nc1ccccc1-c1ccccc1)N1CCN(Cc2ccccc2)CC1 (centres undefined)	-17.6%	-15.0%
CCN(CC)S(=O)(=O)c1cccc(-c2nn(-c3ccccc3)cc2/C=C(\C#N)C(=O)NCc2ccco2)c1	i	-7.0%
COc1ccccc1NC(=O)C1CCN(C(=O)NCc2ccccc2)CC1	-5.7%	-1.7%
Cc1ccc(NC2=C(Cl)C(=O)OC2OC(C)C)cc1 (centres undefined)	-0.4%	-10.7%
O=S(=O)(c1cccc2cccnc12)N1CCCCC1	-12.7%	-5.6%
O=C(CN1CCNCC1)N1CCOCC1	2.0%	-2.9%
COc1ccccc1C(=O)NC(=O)OCCn1c(C)cnc1[N+](=O)[O-]	9.4%	5.0%
O=C(OCc1nnc(-c2ccccc2)o1)c1cccc(S(=O)(=O)N2CCOCC2)c1	-14.0%	-4.6%
OCC1(CC2CCCCO2)CCN(Cc2nc3ccccc3[nH]2)CC1 (centres undefined)	-11.0%	-20.8%
CC[N+]1(CC)CC2=Cc3ccccc3CC2C1 (centres undefined)	?	-14.3%
CC(C)(C)CC(=O)Nc1nn[nH]n1	i	-6.9%
COC(CNC(=O)c1ccc2c3c(onc13)-c1ccccc1C2=O)OC	i	110.5%[activator]
COc1cc(/C=N/NC(=O)c2cccc([N+](=O)[O-])c2)ccc1OCc1ccc(C)cc1	-26.1%	-19.8%
O=C(Nc1cccc(F)c1)N1CCCC(CNS(=O)(=O)Cc2ccccc2)C1 (centres undefined)	-17.9%	-14.5%
COc1ccc(C(=O)Nc2ccc3oc(-c4ccc(F)cc4Cl)nc3c2)cc1	?	?
CCOc1ccc(NC(=O)/C=C/c2ccccc2)c([N+](=O)[O-])c1	-4.1%	-19.2%
O=C(/C=C/c1ccc(N2CCOCC2)cc1)c1ccccc1	-22.1%	-16.9%
CCn1cc(C(=O)N[C@H](C(=O)NCCO)C(C)C)c(=O)c2cc3c(cc21)OCO3	-13.0%	-10.6%
c1ccc(Oc2nc3ccccc3n3cccc23)cc1	.	-27.1%
CCOC(=O)CSc1nc(C)c2ccc(C)cc2n1	?	-21.1%
CC(=O)c1cccc(NC(=O)/C(=C/c2ccco2)NC(=O)c2ccco2)c1	-12.7%	-11.2%
COc1ccc(Nc2nnc(SCC3CCCO3)s2)cc1 (centres undefined)	-23.9%	-9.9%
COc1ccc(C2=NN(C(=O)CSc3nnc(-c4ccccc4F)o3)C(c3ccco3)C2)cc1 (centres undefined)	-4.6%	-20.2%
CCC(c1nnnn1-c1ccc2c(c1)OCCO2)N1CCN(c2ccccc2)CC1 (centres undefined)	10.3%	5.2%
CC(=O)c1cccc(NC(=O)COC(=O)c2ccccn2)c1	-11.2%	14.1%
Clc1ccccc1CNc1nc2ccccc2c2nc(-c3ccccc3)nn12	-13.3%	-7.7%
COc1ccc(CNCCCn2cnc3c(SC)ncnc32)cc1	-15.0%	-15.1%
COc1ccc(Cn2c(=O)n(Cc3ccco3)c(=N)c3c4c(sc32)COC(C)(C)C4)cc1	.	?
Cc1cccc(C)c1NC(=O)C1(C)CN(S(C)(=O)=O)CC(=O)N1C1CC1 (centres undefined)	-13.9%	1.4%
O=C(CCCN1C(=O)/C(=C/c2ccccc2)SC1=S)Nc1ccc(C(=O)O)c(O)c1	i	-9.0%
COc1ccc(-c2nc(S(=O)(=O)c3ccccc3)c(N3CCC(C)CC3)o2)cc1	-15.6%	2.0%
COc1ccccc1NS(=O)(=O)c1cc(NC(=O)COc2ccccc2)ccc1N1CCOCC1	i	-6.8%
COC(=O)c1cc(C(=O)OCC(=O)NNC(=O)c2cccs2)cc([N+](=O)[O-])c1	i	-1.4%

# Going on with the list:
canonical_smiles	VACV mCherry inh	VACV Venus inh
COc1ccc(NC(=O)C(c2ccccc2)n2c(=O)c(-c3ccco3)nc3ccccc32)cc1 (centres undefined)	-16.3%	-13.7%
CCCN(CCC)C(=O)CCSCCC(=O)N(CCC)CCC	-14.4%	-7.1%
Oc1ccc[n+](/C=C\c2ccccc2)c1	-11.4%	-6.4%
Cc1oc(-c2ccccc2NC(=O)C2CCC2)nc1CNC(=O)c1c(F)ccc(F)c1F	-11.2%	9.5%
O=C1CNC(=S)N1CCc1ccc(Cl)cc1	i	65.8%[activator]
CN1CCN(CCC=C2c3ccccc3Sc3ccc(S(=O)(=O)N(C)C)cc32)CC1	-14.4%	?
CCN(CC)CCNC(=O)c1sc2ncn(CC(=O)Nc3ccc(C)c(Cl)c3)c(=O)c2c1C	i	-21.8%
Cc1ccc(OCc2nc3ccccc3n2C(C(=O)NC(C)(C)C)c2ccccc2)cc1 (centres undefined)	-11.1%	0.5%
COc1ccccc1C(=O)NNC(=O)CN(C)S(=O)(=O)c1ccc(Cl)cc1	i	-17.0%
Cc1ccc(NC(=O)CSc2nc(-c3ccco3)nc3cc(=O)[nH]n23)cc1	3.6%	4.4%
CN(C)CCNc1ncnc2c1sc1nc(-c3ccccc3)c3c(c12)CCCC3	?	10µM*
COc1cc2[nH]c(C(=O)NCC3CCCO3)cc2c(OC)c1OC (centres undefined)	i	-8.8%
Cc1ccc(C(c2sc3nc(-c4ccco4)nn3c2O)N2CCC3(CC2)OCCO3)cc1 (centres undefined)	-6.9%	-2.6%
CCOc1ccc2nc(N3C(=O)CNC3=S)sc2c1	-12.9%	10.5%
Cc1ccccc1OC(=O)CSc1nnc(-c2ccc3c(c2)OCO3)o1	-8.0%	-1.0%
CCOC(=O)N1CCN(C(=O)C2CCN(Cc3cccc(OCc4ccccc4)c3)CC2)CC1	i	-19.5%
Cc1ccccc1NS(=O)(=O)c1cc2c(cc1C)N(C)CCO2	?	-10.2%
Cc1ccc(-c2nc3ccccc3c(=O)n2O)cc1	-4.9%	-3.2%
COc1ccc(C2(CNC(=O)c3ccccc3)CCOCC2)cc1	-2.2%	-3.4%
Cc1c(C)n(C)c2ccc(C(=O)NCCCN3CCCCC3C)cc12 (centres undefined)	-5.2%	-6.1%
COc1cccc(C(=O)N(Cc2cccc(Cl)c2)Cc2ccco2)c1	-8.8%	-8.3%
O=C(CN(C(=O)CCC(=O)Nc1nccs1)c1ccccc1F)NCc1ccc2c(c1)OCO2	5.2%	-14.7%
CCC(C)(C)C1CCc2[nH]nc(C(=O)N/N=C(\C)c3ccco3)c2C1 (centres undefined)	i	-19.9%
COc1ccc(CNc2oc(/C=C/c3cc(OC)c(OC)c(OC)c3)nc2C#N)cc1	-21.6%	-18.8%

# 2 entries picked at random from those above:
canonical_smiles	VACV mCherry inh	VACV Venus inh
Oc1ccc[n+](/C=C\c2ccccc2)c1	-11.4%	-6.4%
CCOC(=O)Cn1nc(C)c(NC(=O)COc2ccc(OC)cc2)c1C	-9.2%&-8.7%	-11.0%&-3.9%

# Remaining list, next part:
canonical_smiles	VACV mCherry inh	VACV Venus inh
CC(=O)Nc1ccc(-c2c(C)cc3oc(=O)cc(-c4ccccc4)c3c2C)cc1	i	?
O=C(O)c1cccc(CSc2ncccn2)c1	i	0.8%
Cc1cc(C)cc(NC(=O)N2CCCC2C(=O)Nc2ccc(-n3cnnn3)c(C)c2)c1 (centres undefined)	.	-2.4%
CC(=O)c1c(OC(=O)c2ccccc2)c2ccccc2n1C	-11.2%	-7.5%
O=C(NC1CCCCC1)c1ccc(OC2CCN(Cc3ccccn3)CC2)cc1	-0.5%	-11.2%
O=c1[nH]c2ccccc2nc1C(Nc1ccccc1)c1ccccc1 (centres undefined)	-4.1%	-6.2%
CCCc1ccc(OCCNC(=O)CC)cc1	1.0%	3.8%
Cc1ccc(CNC(=O)C(=O)NCC2OCCN2S(=O)(=O)c2ccc3c(c2)OCCO3)cc1 (centres undefined)	6.1%	-11.1%
COc1ccc(N2CC(NC(=O)Cc3cccs3)CC2=O)cc1 (centres undefined)	-22.9%	-12.1%
Nc1nc2c(nnn2C2CC(O)C(CO)O2)c(=O)[nH]1 (centres undefined)	-25.8%	-22.6%
Cc1cc(OCC(=O)N(Cc2ccc(N(C)C)cc2)Cc2ccco2)cc(C)c1Cl	-9.9%	-2.7%
